Bioassay records (PubChem)
miR-21 FLuc – qHTS Assay for Modulators of miRNAs and/orActivators of miR-21 | HeLa miR-21 FLuc reporter, luciferase, 48 h | Potency, µM (top dose mostly 38.3 µM), for the others: at the top dose reporter change, positive = more light | 340,000 tested, under 10 active; active = well fitted rising curve with a large enough effect; inconclusive = small, poorly fitted or top-dose-only effect; inactive = no such curve, though single readings can be large or run the other way;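 note: % of control where 0% means no effect; miR-21 action dims this reporter so a rising signal means less miR-21 action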
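Luminescence from a firefly luciferase reporter carrying a miR-21 binding site downstream, stably expressed under a CMV promoter in HeLa cells that make miR-21 endogenously, reports miRNA modulation after 48 h compound exposure up to approximately 40uM final.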
An asterisk follows results filed as active; ? = inconclusive. Only part of the results is shown; the hit share may differ from the screen's.

Start of the data: the first 3 compounds, to show the layout:
SMILES	miR-21 FLuc
Cc1ccc(CNC(=O)Cn2c(SCC(=O)Nc3ccc(F)cc3)nc3ccccc32)cc1	-3.3%
Cc1ccc(-c2nnc(SCc3ccccc3C#N)o2)cc1	-41.3%
CC(=O)Nc1ccc(NC(=O)CCc2c(C)nc3c(c(C)nn3-c3ccc(C)cc3)c2C)cc1	-9.8%

The listing, from the start:
SMILES	miR-21 FLuc
Cc1ccc(CNC(=O)Cn2c(SCC(=O)Nc3ccc(F)cc3)nc3ccccc32)cc1	-3.3%
Cc1ccc(-c2nnc(SCc3ccccc3C#N)o2)cc1	-41.3%
CC(=O)Nc1ccc(NC(=O)CCc2c(C)nc3c(c(C)nn3-c3ccc(C)cc3)c2C)cc1	-9.8%
CCc1ccc(Nc2cc(C(=O)NCCCN(C)c3ccccc3)c3ccccc3n2)cc1	4.2%
CCCCOc1ccc(S(=O)(=O)N2CCN(c3ccccc3OCC)CC2)cc1	-3.6%
COc1cccc(NC(=O)C2CCN(c3nnc(C)c4c(C)n(-c5ccccc5)nc34)CC2)c1	13.6%
Cc1ccc(N2CCN(C(=O)c3cn(C)c4ccc(S(=O)(=O)N5CCC(C)CC5)cc4c3=O)CC2C)cc1 (stereo not drawn)	-1.0%
CC(=O)N1c2nc(C(C)C)nn2C2(CCCCC2)[C@@H]2CCCC[C@@H]21	-8.7%
COc1ccc(NC(=O)CSc2ncc3c(n2)-c2ccccc2N(Cc2ccc(C)cc2)S3(=O)=O)cc1Cl	9.4%
Cc1c(Cl)cccc1NC(=O)CSc1ncc(S(=O)(=O)c2ccc(C(C)C)cc2)c(=O)[nH]1	3.8%
Cc1ccc(N2C(=O)c3n[nH]c(C)c3C2c2ccccc2Cl)cc1 (stereo not drawn)	1.1%
CCc1cnc2c(c1SCC(=O)NCc1ccccc1)c(=O)n(C)c(=O)n2C	-3.7%
COc1ccc(NC(=O)c2nnn(CC(=O)Nc3cc(C)cc(C)c3)c2N)c(OC)c1	-1.6%
COc1ccccc1NC(=O)C1=C(C)Nc2nc(SCc3ccccc3Cl)nn2C1c1ccccn1 (stereo not drawn)	10.6%
Cc1ccc(C)c(N2CCN(C(c3ccccc3)c3nnc(-c4ccccc4F)o3)CC2)c1 (stereo not drawn)	-2.9%
CSc1ccc(CCNC(=O)Cn2c(C)c3cnn(-c4ccccc4)c(=O)c3c2C)cc1	2.0%
O=C(NCc1ccc(F)cc1)C1CCN(C(=O)c2ccc(-n3ccc4ccccc43)s2)CC1	1.0%
CN1C(=O)C2(c3ccccc31)N(c1ccccc1)C(=O)CS2(=O)=O (stereo not drawn)	4.2%
CCN(CC)c1nc2ccccc2nc1C(=O)Nc1ccc(C(C)=O)cc1	29.1%
O=c1cc(-c2ccccc2)n2c(SCc3ccc(Cl)cc3)nnc2[nH]1	-2.0%
Cc1oc2ncn(CC(C)C)c(=O)c2c1C(=O)NCCCN(C)Cc1ccccc1	0.3%
O=C(Nc1ccccc1Br)C(Cc1ccccc1)NS(=O)(=O)c1cccc2nsnc12 (stereo not drawn)	23.2%
COC(=O)c1ccccc1NC(=O)N(Cc1ccc(C)cc1)Cc1cccn1-c1nnc(N2CCCC2=O)s1	-1.2%
CC(C)c1ccc(Nc2cc(C(=O)NCCc3ccccc3)c3ccccc3n2)cc1	-0.9%
COc1cccc(-n2c(-c3ccco3)nc3c(cnn3-c3ccccc3C)c2=O)c1	?
CCn1c(=O)cc(OCC(=O)N(C)c2cc(Cl)ccc2C)c2ccccc21	?
CCC(C(=O)NCCc1cc(OC)ccc1OC)n1nc(C)c2c(C)n(-c3ccccc3)nc2c1=O (stereo not drawn)	6.0%
O=C(Cn1ncc2c3ccccc3n(Cc3cccc(Cl)c3)c2c1=O)NCCC1=CCCCC1	1.6%
Cn1cc(S(=O)(=O)c2cccc(Cl)c2)c(=O)c2cc(F)c(N3CCN(c4ccccc4)CC3)cc21	0.2%
Cc1ccc(S(=O)(=O)N2CC=C(c3c(C)n(CC(=O)N4CCCC4)c4ccccc34)CC2)cc1C	20.7%
Cc1cc(OCC(=O)NCC2(N(C)C)CCCCC2)cc(C)c1Cl	-13.7%
CCOc1cc(CNc2ccc(O)cc2)cc(Br)c1OCc1ccccc1	14.5%
COc1ccc(NC(=O)c2ccco2)cc1NC(=O)c1ccc(OC(C)C)cc1	13.4%
Cc1cn2c(=O)cc(COC(=O)c3ccc(NC(=O)c4ccc(C(C)(C)C)cc4)cc3)nc2s1	-46.4%
COc1ccc(-c2nc3c4ccccc4n(CC(=O)N4CCN(c5ccccc5F)CC4)c(=O)n3n2)cc1	1.3%
COc1cccc(CNc2nccn(-c3cc(C)cc(C)c3)c2=O)c1	3.5%
Cc1ccn2c(=O)cc(COc3ccc(NC(=O)c4ccccc4F)cc3)nc2c1	0.1%
COc1ccc(S(=O)(=O)N(CC(=O)N2CCc3ccccc3C2)c2ccc(C)cc2)cc1	-0.3%
Cc1ccc(C)c(NC(=O)C(=O)NCCc2csc(-c3ccc(C(F)(F)F)cc3)n2)c1	0.6%
O=C(CCCn1c(=O)[nH]c2ccsc2c1=O)N1CCN(c2cccc(C(F)(F)F)c2)CC1	?
CCN1CCN(CCCNC(=O)c2ccc3c(c2)sc2nc(-c4ccc(C)cc4)cn23)CC1	-1.3%
CCOC(=O)c1c(C)oc2nc(C)nc(N3CCN(c4ccc(C(C)=O)cc4)CC3)c12	-10.0%
Cc1ccc(C(=O)NCC(=O)OCc2cc(=O)n3ccsc3n2)cc1	3.2%
COc1cc2ccccc2cc1C(=O)Nc1cccc(-c2nc3cc(C)c(C)cc3o2)c1	-44.8%
COc1cc(OC)c(NC(=O)c2cc(S(=O)(=O)N3CCCC3)cn2C)cc1Cl	10.5%
CCc1ccc(S(=O)(=O)N(C(C)=O)c2ccc3oc4c(c3c2)CCCC4)cc1	5.2%
CCOc1ccccc1CNC(=O)CCn1cccn1	-0.4%
CCCCOc1ccc(C(=O)NCCc2csc(-c3cccc(F)c3)n2)cc1	7.4%
O=C(Cn1ccn(-c2cccc(Cl)c2)c(=O)c1=O)NCCc1ccccc1	3.8%
CCc1nc2ccc(C(=O)NCc3cc(OC)ccc3OC)cc2nc1CC	0.6%
Oc1ccccc1-c1nc2ccc(Cl)cn2c1Nc1ccc2c(c1)OCCO2	-11.9%
COc1ccc(N2C(=O)CS(=O)(=O)C23C(=O)N(Cc2c(F)cccc2Cl)c2ccccc23)cc1 (stereo not drawn)	-4.6%
O=C(Nc1ccc2oc(-c3ccccc3)nc2c1)c1ccc2ccccc2c1	-24.1%
CCCCOC(=O)c1ccc(NC(=O)c2sc3nc(C)cc(C)c3c2N)cc1	-65.3%
Cc1ccc(N2CC(NC(=O)c3ccc(S(=O)(=O)N4CCOCC4)cc3)CC2=O)cc1C (stereo not drawn)	13.6%
CCC(=O)N1c2ccc(S(=O)(=O)NCc3ccc(F)cc3)cc2CC1C (stereo not drawn)	0.8%
Cc1ccccc1OCc1nc2ccccc2n1Cc1ccccc1Cl	-0.2%
C=CCOc1ccc(C2c3c(oc4ccc(C)cc4c3=O)C(=O)N2CCCN2CCOCC2)cc1 (stereo not drawn)	-23.5%
Cc1cccc(-c2nc(SCc3ccc(Br)cc3)n3[nH]c(=O)cc3n2)c1	-0.9%
CCOc1ccc(-n2ccn3c(CC(C)CC(=O)O)nnc3c2=O)cc1 (stereo not drawn)	-2.4%

Next part:
SMILES	miR-21 FLuc
CC(=O)Nc1ccc(-c2cc(C(=O)O)c3c(-c4ccccc4)[nH]nc3n2)cc1	1.7%
O=C(Cn1c(=O)c(C(F)(F)F)nc2ccccc21)Nc1cccc(Br)c1	-0.4%
Cc1nn2c(=O)cc(CN(C)c3ccccc3)nc2s1	-9.5%
CCOc1ccc(NC(=O)CSc2nnc3scc(-c4ccccc4)n23)cc1	0.2%
CCSc1ncc(Cl)c(C(=O)Nc2cccc(Cl)c2)n1	3.1%
CCOC(=O)c1cccc(NC(=O)NC2COc3ccccc3C2)c1 (stereo not drawn)	0.8%
CCOC(=O)C1CCCN(C(=O)c2cccc(NC(=O)c3nsc4ccccc34)c2)C1 (stereo not drawn)	-25.2%
O=c1c(=O)n(-c2cccc(Cl)c2)ccn1Cc1cccc(F)c1	2.1%
COc1ccc(-c2nc3sc(CCNS(=O)(=O)c4ccccc4)c(C)n3n2)cc1	6.0%
CCc1ccc(C2c3c(-c4cc(C)ccc4O)n[nH]c3C(=O)N2Cc2cccnc2)cc1 (stereo not drawn)	16.4%
O=C(Nc1cccc(C(=O)OCc2cc(=O)n3c4c(sc3n2)CCCC4)c1)c1cccc(Cl)c1	-5.7%
Cc1ccc(-n2nnc3c(sc4nc(C)c(C)cc43)c2=O)cc1Cl	-1.7%

Reprinted at random: 7 records from the list
SMILES	miR-21 FLuc
CCC(=O)N1c2ccc(S(=O)(=O)NCc3ccc(F)cc3)cc2CC1C (stereo not drawn)	0.8%
CCc1cnc2c(c1SCC(=O)NCc1ccccc1)c(=O)n(C)c(=O)n2C	-3.7%
O=C(CCCn1c(=O)[nH]c2ccsc2c1=O)N1CCN(c2cccc(C(F)(F)F)c2)CC1	?
Cc1cccc(-c2nc(SCc3ccc(Br)cc3)n3[nH]c(=O)cc3n2)c1	-0.9%
CC(=O)Nc1ccc(-c2cc(C(=O)O)c3c(-c4ccccc4)[nH]nc3n2)cc1	1.7%
O=C(Nc1ccc2oc(-c3ccccc3)nc2c1)c1ccc2ccccc2c1	-24.1%
CCc1nc2ccc(C(=O)NCc3cc(OC)ccc3OC)cc2nc1CC	0.6%

Other entries:
SMILES	miR-21 FLuc
Cc1cccc(-c2nnn3c2nc(NCCC(C)C)c2ccccc23)c1	-3.8%
CC1=C(C(=O)Nc2ccccc2)C(c2cccnc2)n2nc(SCc3ccccc3Cl)nc2N1 (stereo not drawn)	-12.9%
COc1cc(NC(=O)CSc2nc3nc(C)c(Cc4ccc(C)cc4)c(C)n3n2)cc(OC)c1OC	19.0%
O=C1CC(c2cccc(O)c2)c2cc3c(cc2N1)OCO3 (stereo not drawn)	3.0%
CCCc1nn2cc(-c3ccc(C)c(C)c3)nc2s1	4.5%
Cc1ccc(-n2c(=O)c3c(c4cc(C)ccc4n3C)n(CC(=O)Nc3ccc(F)cc3)c2=O)cc1	-1.2%
Cc1ccc(NC(=O)C(=O)NCCc2csc3nc(-c4ccccc4C)nn23)cc1Cl	4.9%
O=C(Nc1c(C(=O)Nc2ccc(F)cc2)oc2ccccc12)c1ccccc1F	-1.3%
CCc1ccc(S(=O)(=O)Nc2cccc(-c3ccc(N4CCC(C)CC4)nn3)c2)s1	-12.9%
N#Cc1ccc(C(=O)NCc2ccc3c(c2)CCN3C(=O)c2ccc(F)cc2)cc1	?
CCOc1ccc(-c2nc(CNC(=O)NC3CCCCC3)c(C)o2)cc1	-13.9%
COc1ccc(C2c3c(nc[nH]c3=O)Oc3nc[nH]c(=O)c32)cc1	-0.5%
CCOC(=O)c1cc2c(=O)n3ccccc3nc2n(CCCOC)c1=NC(=O)c1c(-c2c(F)cccc2Cl)noc1C	17.8%
Cc1cc(Cl)ccc1OCc1nc(-c2ccc(-n3cccc3)cc2)no1	-5.8%
Cc1cc(C)cc(OC(=O)c2cc(-c3ccc(Cl)cc3)on2)c1	3.1%
CCn1c(=O)c(=O)n(CC)c2cc(N3CCCCC3)c(NC(=O)c3ccc(Cl)cc3)cc21	0.8%
COc1cc(C2c3c(oc4ccccc4c3=O)C(=O)N2c2nncs2)cc(OC)c1OC (stereo not drawn)	-1.3%
CCN1CCN(C(=O)c2ccc3c(c2)N(Cc2ccc(Cl)cc2)C(=O)c2ccccc2S3(=O)=O)CC1	-0.2%
Cc1ccccc1NC(=O)c1c(NC(=O)C(F)(F)F)sc2c1CCCCC2	?
COc1ccccc1NC(=O)CC1Sc2ccc(C(F)(F)F)cc2NC1=O (stereo not drawn)	-20.1%
Cc1cccc(Cn2cc3c(=O)n(CC(=O)Nc4cccc(C)c4C)nc-3c3cc(F)ccc32)c1	1.7%
CCOc1ccccc1CNC(=O)C(CC)n1nc(C)c2c(C)n(-c3ccccc3)nc2c1=O (stereo not drawn)	13.9%
COc1cnc(-c2ccccn2)nc1Oc1cccc(C(F)(F)F)c1	17.4%
COc1ccc(Nc2cc(C(=O)NCCCN(C)Cc3ccccc3)c3ccccc3n2)cc1	24.6%
COc1ccc(N2CCN(C(=O)c3cc4cc5ccc(Cl)cc5nc4o3)CC2)cc1	0.8%
Cc1nc2ccc(S(=O)(=O)N(CC(=O)Nc3ccc(F)cc3)Cc3ccccc3)cc2s1	12.8%
Cc1cc(S(=O)(=O)Nc2ccc(-c3ccc(N4CCCCC4)nn3)cc2)c(C)cc1Cl	-1.1%
COc1ccc(NC(=O)Cn2cc(S(=O)(=O)c3ccccc3)c(=O)c3cc(C)ccc32)cc1Cl	2.2%
CCc1cccc(NC(=O)CN2Cc3ccccc3C2=O)c1	-4.1%
CC(=O)CSc1nnc2cc(C)c3cc(C)cc(C)c3n12	-21.0%
CC(=O)c1ccc(S(=O)(=O)Nc2cccc(-c3ccc(N4CCCCC4)nn3)c2)cc1	-5.0%
CCOc1ccc(NC(=O)c2oc3ccccc3c2NC(=O)Cc2ccc(OC)c(OC)c2)cc1	-35.5%
COc1ccccc1NC(=O)CN1CCN(CC(=O)Nc2ccc(F)c(F)c2)CC1	-3.1%
CCc1ccc2oc(C(=O)N(Cc3cccc(Cl)c3)Cc3ccco3)c(C)c2c1	-4.5%
O=C(Nc1ccc(-c2nc3cc(Cl)ccc3o2)cc1)c1cc2ccccc2o1	-14.5%
COc1cccc(CNC(=O)c2cc3ccc4cccnc4c3[nH]2)c1	2.6%
Cc1ccc(NC(=O)CSc2nc3nccnc3c(=O)n2CCc2c[nH]c3ccccc23)cc1	-1.2%
COc1cccc(-c2cn3ncsc3n2)c1	-32.3%
O=C(NCCSCc1ccccc1)C1CCN(S(=O)(=O)Cc2ccccc2)CC1	-19.4%
O=C(NCc1cccnc1)C(=O)NCC(c1cccnc1)N1CCN(c2ccccc2F)CC1 (stereo not drawn)	-5.5%
